ugtP null kill: growth inhibition of ugtP-null S. aureus, primary screen, RN4220 ugtP deletion, OD600; 16 h; some inactives read as strong as hits; growth inhibition, % (concentration not given with the values); 330,000 tested, 0.54% active; AID 1259309, 2017;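 active = z-score under -3 and OD600 up to 0.15 on both plates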;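 also: plate controls were untreated wells for no effect and antibiotic for full effect; wells of about 80 µL received 100 nL stock; the first replicate is given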
Autofluor counter: flagged as autofluorescent in microsphere protease counterscreen. compound autofluorescence counterscreen, microsphere flow cytometry; active compounds read high. fluorescence intensity (test concentration not listed). 360,000 tested, 3.1% active. AID 624483;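 active = at least 3 SD above the mean of all compounds, about 16000 in these data; inconclusive = too few beads counted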;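 also: 100 nL of 1 mM stock went into each well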
Mtb hypoxia rep: PubChem AID 1159583 | M. tuberculosis hypoxia-regulated fluorescent reporter, fluorescence | 300,000 tested, 0.1% active | fluorescence inhibition, % (no concentration beside the values);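 active = 35 to 45% if threefold the growth effect, above 45% if 1.5-fold the growth effect; inactive = the rest, general growth blockers included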;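 also: wells of about 50 µL received 100 nL stock; 0% = vehicle wells and 100% = reference inhibitor wells; whole bacteria with a GFP reporter of the hypoxia response; strong numbers were not always called active; many hits fall short of the cut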
BJeLR viability: MLPCN primary cell-based screen for lethality selective to Ras in HRASV12 cells. BJeLR (HRASV12) viability, CellTiter-Glo ATP luminescence, 48 h; reference of the scale not given here. inhibition, % (test concentration not listed). AID 1554, 2009. 300,000 tested, 0.17% active;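 active = replicate mean above 50%; inconclusive = above 50% but judged a plate artefact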;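 also: 50 nL library stock added to about 25 µL; numbers are from one replicate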
PrP 5UTR inh: inhibition of PrP 5' UTR reporter expression | 340,000 tested, 0.35% active | inhibition, % (concentration not given with the values) | cell-based PrP 5' UTR mRNA reporter, plate reader;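 active = every replicate at 50% or more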;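 also: 0 = median of the neutral control wells; tested in H4 reporter cells; numbers are from one replicate; inactives centre near -14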
Sa RN4220 lethal: growth inhibition of S. aureus RN4220, primary screen, OD600. inhibition, % (concentration not given with the values). 330,000 tested, 0.33% active. 16 h;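 active = z-score of -3 or lower and OD600 up to 0.18 on both plates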;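 also: plate controls were untreated cells for no effect and reference antibiotic for full effect; stock transfer was 100 nL into about 80 µL; one replicate is shown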
Mtb hypoxia rep growth: second read-out of Mtb hypoxia rep, no call of its own (marks repeat the call); growth inhibition, %; measured here: M. tuberculosis growth (absorbance);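 0% = vehicle and 100% = reference antibiotic; read after six days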
Active calls of the source: *; ? = inconclusive; / = not tested or not shown. Compounds were not picked by outcome; 4% or so of the library scored in one or more.

SMILES	ugtP null kill	Autofluor counter	Mtb hypoxia rep	Mtb hypoxia rep growth	BJeLR viability	PrP 5UTR inh	Sa RN4220 lethal
O=C(c1cccc(Cl)c1)N1CCC(=O)N(C(COCc2ccccc2)Cc2ccccc2)CC1 (stereo unspecified)	8	4194	5	10	10	-13	2.3
CCOc1ccccc1NC(=O)C1=C(C)NC(=S)NC1c1cccs1 (stereo unspecified)	1	9797	7	-1	-5	-34	4.0
COc1cc(OC)cc(-c2oc3cccnc3c2C#CCCO)c1	/	3083	/	/	3	1	/
C=CCn1c(CCc2ccccc2)nnc1SCC(=O)OC	6	3188	-3	-2	21	-22	2.7
CCCCN(C)C(=O)C1CCN(C/C(C)=C/c2ccccc2)CC1	5	4142	/	/	/	-37	2.8
Cc1ccc(NC(=S)NCCN(C2CCCCC2)C2CCCC2)cc1	-3	4930	-5	-9	1	-11	3.4
COc1ccc(-n2c3c(cc(C(=O)NCC(=O)c4ccccc4)c2=O)C(=O)CC(C)(C)C3)cc1	6	4302	-4	-1	-5	-13	1.7
COc1ccc(-n2c(C)cc(C(=O)C[N+]34CCN(CC3)CC4)c2C)cc1	2	4628	16	8	10	-10	6.6
Cc1c(Cl)c(C(=O)N2CCCC2)nn1C	4	2560	9	0	22	-20	2.1
NC(=NOC(=O)c1cccc2ccccc12)c1cccc([N+](=O)[O-])c1	-4	/	6	4	/	/	0.7
Cc1ccc(OCC(O)Cn2c(N3CCCCC3)nc3c2c(=O)[nH]c(=O)n3C)cc1 (stereo unspecified)	-2	3995	-4	15	3	-18	4.7
O=C(COc1ccc(NC(=O)c2ccccc2[N+](=O)[O-])cc1)c1ccc(F)cc1	-4	4444	6	-1	-1	-2	4.0
CC1(C)Cc2c(sc(NC(=O)c3ccc(S(=O)(=O)N4CCCC4)cc3)c2C#N)C(C)(C)N1	4	5534	5	3	20	4	0.6
CN1CCN(S(=O)(=O)c2ccc3ccccc3c2)CC1	5	6375	/	/	-8	-10	4.6
CC(=O)n1cc(-c2ccncc2)c2ccccc21	11	5363	3	2	-3	55*	6.8
COc1cccc(OCc2cc(C(=O)N3CCC(c4ccncc4)CC3)no2)c1	3	6605	-1	-2	10	-3	3.4
Cc1cc(NC(=O)CSc2nc3c(sc4ccccc43)c(=O)n2CCCN2CCOCC2)n[nH]1	-1	9283	8	6	7	-12	-0.5
COc1ccc(C(C)=O)cc1CC(C(=O)c1ccc(Br)cc1)N(C)C (stereo unspecified)	9	2038	11	8	2	-7	7.4
Clc1ccc(Cl)c(OCCCCN2CCNCC2)c1	2	3955	12	22	11	-23	-0.5
CCCc1cc(CNC(=O)C2CCC(=O)N(Cc3ccccc3OC)C2)on1 (stereo unspecified)	7	5309	14	6	3	-8	1.8
CCN(CC)c1ccc(C2=NNC(=O)CC2C)cc1[N+](=O)[O-] (stereo unspecified)	-2	11119	8	5	-10	38	7.0
Cc1ccc(S(=O)(=O)N2CCOCC2)cc1NC(=O)COC(=O)c1ccc(Cl)s1	4	4011	14	3	/	-26	3.4
CS(=O)c1ccccc1-c1nc(-c2ccc(Cl)cc2)no1 (stereo unspecified)	-7	3822	6	4	-9	-32	13
COc1cc(NC(=O)Cn2c(=O)n(CC3CCCO3)c(=O)c3cc(OC)c(OC)cc32)cc(OC)c1 (stereo unspecified)	14	5604	0	0	6	0	6.5
C=CCN1c2ccc(Br)cc2C(=O)CS1(=O)=O	-5	4015	11	7	/	-17	7.4
New compounds follow.
SMILES	ugtP null kill	Autofluor counter	Mtb hypoxia rep	Mtb hypoxia rep growth	BJeLR viability	PrP 5UTR inh	Sa RN4220 lethal
CCCCCOc1ccc(C(=O)C(c2ccccc2)N2CCOCC2)cc1 (stereo unspecified)	-13	4455	/	/	2	-11	-0.5
O=S(=O)(Nc1cccc(-c2cn3cccnc3n2)c1)c1ccc(Cl)cc1	/	7545	/	/	4	-7	/
Cc1ccc(S(=O)(=O)N2C[C@@H]3[C@H]4CC[C@H](C4)[C@@H]3[C@@H](C)[C@@H]2c2ccco2)cc1	64	3378	3	2	/	-8	3.8
CC(=O)C1=C(O)C(=O)N(c2nnn(C)n2)C1c1cccs1 (stereo unspecified)	5	5682	/	/	-6	-38	5.3
Cc1c(NS(=O)(=O)c2ccc(Cl)c(C(=O)OC(C)C(=O)NCc3ccco3)c2)c(=O)n(-c2ccccc2)n1C (stereo unspecified)	2	3003	17	9	-2	-13	2.1
OCC1OC(O)CC(O)C1O (stereo unspecified)	-1	5638	6	5	/	-10	4.9
O=C(NC1CCCC1)c1ccc(COCC(F)(F)C(F)F)o1	3	10833	8	6	1	5	3.8
CC(OC(=O)/C=C/c1ccc2ccccc2n1)C(=O)NCc1ccccc1 (stereo unspecified)	-6	5934	8	13	1	-26	-5.3
COC(=O)Cn1c(=O)n(CCc2ccccc2)c(=O)c2c3c(sc21)CCCC3	-16	10291	2	4	4	-25	4.8
CC1CCC(NC(=O)C2CCN(C(=O)NC3CCCCC3)CC2)CC1 (stereo unspecified)	10	/	2	9	-10	/	5.1
C[C@H](NC(N)=O)C(=O)OCC(=O)NCc1cccs1	5	3398	10	0	-2	-10	9.7
Cc1csc(NC(=O)C2C3C=CC(C3)C2C(=O)O)n1 (stereo unspecified)	-8	21611*	5	17	1	-17	-5.0
Cc1ccc(CNC(=O)COC(=O)c2cc(C)oc2C)cc1	0	5539	5	8	/	-19	3.3
Cc1cc(C(=O)NC(C)c2ccc3c(c2)OCO3)cs1 (stereo unspecified)	-3	22313*	/	/	-1	-1	5.1
CCC(C)Sc1nc(O)cc(=O)[nH]1 (stereo unspecified)	3	7768	0	3	18	-19	3.5
CC(C)C[C@H](N)c1nnc(SCc2ccc(Cl)cc2)o1	10	3623	13	-6	6	-30	4.4
Cn1[nH]c(-c2ccccc2)c(C=NO)c1=O	7	/	10	-7	/	/	6.7
N/C(CCN1CCOCC1)=N/O	/	5478	/	/	-3	-12	/
c1ccc(-c2csc(Nc3ccccn3)n2)cc1	6	3409	7	-3	4	-52	-7.7
Cc1ccc(CN(C(=O)Cn2nnc3ccccc32)C(C(=O)NCc2ccco2)c2cccs2)cc1 (stereo unspecified)	6	4406	/	/	1	6	-0.1
CSCc1c(C(=O)NCCc2ccccn2)oc2ccccc12	-1	3773	16	4	-1	-17	3.8
O=C(c1cc2ccccc2o1)N1CCN=C1SCc1cccnc1	-4	4807	3	4	1	-15	0.5
Cc1ccc(-n2c(SCC(=O)N3CC(=O)Nc4ccccc43)nc3ccccc3c2=O)cc1C	-8	2622	2	3	16	8	-5.2
Cc1[nH]c2ccc(C(=O)OC(C)C(=O)N(C)C3CCCCC3)cc2c1C (stereo unspecified)	-6	?	-6	3	/	-12	-0.2
CC(=O)Nc1ccc(S(=O)(=O)NCC(=O)OCc2cc(=O)oc3ccc4ccccc4c23)cc1	6	2841	5	2	-10	12	3.2
Next records follow.
SMILES	ugtP null kill	Autofluor counter	Mtb hypoxia rep	Mtb hypoxia rep growth	BJeLR viability	PrP 5UTR inh	Sa RN4220 lethal
C=CCN1C(=O)C2(C(C(=O)c3ccc(C)o3)=C(O)C(=O)N2CCCN2CCOCC2)c2ccccc21 (stereo unspecified)	7	3143	/	/	-2	-11	5.3
CC(=O)OC[C@]1(OC(C)=O)C[C@@]23CC[C@H]4[C@@](C)(CCC[C@@]4(C)C(=O)O)[C@@H]2CC[C@@H]1C3	/	3726	/	/	-1	-15	/
CC(C)C(=O)NC(=S)Nc1ccccc1C(F)(F)F	12	3994	/	/	4	0	0.1
COc1cc(C(=O)NC2CCCCC2)ccc1OCc1ccc(Cl)cc1Cl	6	2463	4	0	-20	-8	10
CCCOc1ccc(/C=C/C(=O)Nc2ccc([N+](=O)[O-])cc2C)cc1	4	4708	11	6	5	-22	4.8
COc1cc(OC)cc(C(=O)Nc2cccc3c2CCCC3)c1	1	3300	1	2	-3	-14	3.1
CCCCOc1ccc(C(=O)N2CCCC2C(=O)O)cc1 (stereo unspecified)	-10	/	-3	-1	-4	-3	0.4
CCn1ccnc1CNC(=O)c1ccc2oc(C(C)C)nc2c1	3	6088	2	-4	1	-16	0.8
O=C(COC(=O)CCN1C(=O)C2CC=CCC2C1=O)NCCc1ccc(F)cc1 (stereo unspecified)	4	6067	4	-2	/	-19	1.3
COCc1cc(=O)n2[nH]c(-c3ccco3)cc2n1	-4	3866	-6	7	-5	-20	-1.3
COc1ccc(OC)c(NC(=O)NCc2ccc(F)cc2)c1	4	?	1	-3	-3	-24	0.6
Cc1ccc(CNC(=O)CCc2c(C)[nH]c(=O)c(C#N)c2C)cc1	3	3484	-3	7	-3	-11	-2.5
O=C(COC(=O)c1cc(-c2cccs2)nc2ccccc12)NCc1ccco1	/	3422	/	/	1	-10	/
Cc1ccc2c(c1)C1(SCCS1)C(=O)N2	-7	11295	9	4	0	-22	6.3
O=C(COC(=O)c1ccco1)Nc1ccc(Br)cc1	-2	8279	13	4	0	20	5.5
O=c1oc(-c2ccccc2)nc2c1cnn2-c1ccccc1	3	11738	3	3	9	-23	1.8
COc1ccc(N2CCN(S(=O)(=O)c3c(C)[nH]c(C)c3C(=O)N3CCCC3)CC2)cc1	-1	6368	2	5	2	4	-0.5
Cc1ccc(NC(=O)CS(=O)CC(=O)N(C(C)C(=O)NC2CCCCC2)C(C)(C)C)cc1 (stereo unspecified)	-1	3668	-6	-10	1	-4	4.7
O=C(Nc1nccs1)c1cn(-c2ccccc2)nc1-c1ccncc1	1	4211	9	3	-13	3	7.0
Cn1c(N)c(C(=O)COC(=O)c2ccccc2C(F)(F)F)c(=O)n(C)c1=O	-5	9014	1	3	/	-21	5.6
CCCCOC(=S)NC(=O)c1sc2ccccc2c1Cl	/	23574*	/	/	0	-11	/
Cc1cc(C)n2c(SCC(=O)Nc3c(C)n(C)n(-c4ccccc4)c3=O)nnc2n1	-2	2886	24	-16	2	-2	-19
O=S(=O)(c1cnc[nH]1)N1CCc2ccccc21	-5	5769	/	/	-4	4	1.2
CN(CC(=O)Nc1ccc(F)cc1)C(=O)COC(=O)CN1C(=O)NC2(CCCC2)C1=O	12	4275	-2	-5	7	-5	2.3
CCOCCOC(=O)C1=C(C)N(C)C(=O)NC1c1ccccc1Cl (stereo unspecified)	-3	3166	8	-2	2	-9	-11

As entered above.
BJeLR viability result of `Cc1ccc2c(c1)C1(SCCS1)C(=O)N2` : 0
BJeLR viability result of `CCOCCOC(=O)C1=C(C)N(C)C(=O)NC1c1ccccc1Cl` (stereo unspecified) : 2
PrP 5UTR inh result of `CCCCOC(=S)NC(=O)c1sc2ccccc2c1Cl` : -11

Further results.
SMILES	ugtP null kill	Autofluor counter	Mtb hypoxia rep	Mtb hypoxia rep growth	BJeLR viability	PrP 5UTR inh	Sa RN4220 lethal
CC1CCCC(N2C(=O)NC(NC(=O)c3ccco3)(C(F)(F)F)C2=O)C1C (stereo unspecified)	1	3661	/	/	5	-10	-3.9
CCCCn1c(N)c(N(CCC(C)C)C(=O)C2=COCCO2)c(=O)[nH]c1=O	8	4576	1	-2	-21	-12	0.7
Cc1sc2ncnc(N3CCC(C(=O)NCC(=O)Nc4ccc(F)c(F)c4)CC3)c2c1C	-9	5824	-2	-3	-8	-2	-8.5
Cc1cc(C)nc(NS(=O)(=O)c2ccc(NC(=O)CN3C(=O)C4CC=CCC4C3=O)cc2)n1 (stereo unspecified)	-5	4826	13	2	-1	-17	4.3
COc1ccc(-c2noc(C3CCCN(S(=O)(=O)c4cccc(Cl)c4)C3)n2)cc1OC (stereo unspecified)	2	23625*	7	11	-6	-9	2.6
Cc1cccnc1NC(=O)NC(=O)c1ccc(C(C)(C)C)s1	5	/	4	3	-6	-90	3.1
COc1ccc(N(C)C(=O)Cc2c(C(=O)O)[nH]c3ccccc23)cc1	4	3516	7	8	11	-14	5.8
COC(=O)C1=C(C)N(c2cccc(Cl)c2)C(=O)C1	-1	3143	10	10	-10	-2	2.4
CCc1c(C)sc(NC(=O)c2cc(CC(C)C)on2)c1C#N	-2	6501	5	8	9	-15	-6.6
CCOc1ccccc1CSc1nc2ccccc2[nH]1	-6	2572	5	-8	15	14	-1.0
